# RN4220 kill – growth inhibition of S. aureus RN4220, primary screen, OD600. 16 h. inhibition, % (concentration not given with the values). actives 0.33% (n = 330,000). AID 1259311, 2017;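 active means z-score of -3 or lower and OD600 up to 0.18 on both plates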;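 further: plate controls were untreated cells for no effect and reference antibiotic for full effect; stock transfer was 100 nL into about 80 µL; one replicate is shown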
# BJeLR lethal – MLPCN primary cell-based screen for lethality selective to Ras in HRASV12 cells; BJeLR (HRASV12) viability, CellTiter-Glo ATP luminescence, 48 h; reference of the scale not given here; inhibition, % (no concentration beside the values); actives 0.17% (n = 300,000);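 active means replicate mean above 50%; inconclusive means above 50% but judged a plate artefact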;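 further: 50 nL library stock added to about 25 µL; numbers are from one replicate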
# ugtP null kill – growth inhibition of ugtP-null S. aureus, primary screen, RN4220 ugtP deletion, OD600; 16 h; some inactives read as strong as hits; growth inhibition, % (no concentration beside the values); actives 0.54% (n = 330,000); AID 1259309, 2017;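 active means z-score under -3 and OD600 up to 0.15 on both plates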;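 further: plate controls were untreated wells for no effect and antibiotic for full effect; wells of about 80 µL received 100 nL stock; the first replicate is given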
# Mtb hypoxia rep – PubChem AID 1159583; M. tuberculosis hypoxia-regulated fluorescent reporter, fluorescence; fluorescence inhibition, % (concentration not given with the values); actives 0.1% (n = 300,000);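 active means 35 to 45% if threefold the growth effect, above 45% if 1.5-fold the growth effect; inactive means the rest, general growth blockers included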;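 further: wells of about 50 µL received 100 nL stock; 0% = vehicle wells and 100% = reference inhibitor wells; whole bacteria with a GFP reporter of the hypoxia response; strong numbers were not always called active; many hits fall short of the cut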
# Autofluor counter – compound fluorescence in toxin protease inhibitor counterscreen; AID 624483; actives 3.1% (n = 360,000); fluorescence intensity (test concentration not listed); compound autofluorescence counterscreen, microsphere flow cytometry; active compounds read high;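 active means at least 3 SD above the mean of all compounds, about 16000 in these data; inconclusive means too few beads counted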;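 further: 100 nL of 1 mM stock went into each well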
# PrP 5UTR inh – inhibition of PrP 5' UTR reporter expression | cell-based PrP 5' UTR mRNA reporter, plate reader | inhibition, % (test concentration not listed) | actives 0.35% (n = 340,000) | AID 488862, 2010;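 active means every replicate at 50% or more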;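 further: 0 = median of the neutral control wells; tested in H4 reporter cells; numbers are from one replicate; inactives centre near -14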
# Mtb hypoxia rep growth – second read-out of Mtb hypoxia rep, no call of its own (marks repeat the call); growth inhibition, %; measured here: M. tuberculosis growth (absorbance);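 0% = vehicle and 100% = reference antibiotic; read after six days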
# Starred values were filed as active, the others as inactive; u = inconclusive; x = not tested or not shown.
SMILES,RN4220 kill,BJeLR lethal,ugtP null kill,Mtb hypoxia rep,Mtb hypoxia rep growth,Autofluor counter,PrP 5UTR inh
O=C(CSc1nccn1-c1ccc(Cl)cc1)N1CCCc2ccccc21,9.1,-9,-5,6,6,2306,-14
COc1cccc(CN(C)CC(=O)Nc2cc(S(=O)(=O)N3CCCC3)ccc2Cl)c1OC,0.8,x,5,-5,1,6574,-16
O=[N+]([O-])c1cccc(-c2nnc(-c3ccccc3F)o2)c1,4.1,-3,-1,9,11,3566,-89
CCOc1cc(S(=O)(=O)NCc2cccs2)ccc1Cl,2.5,-2,-8,x,x,4774,-3
CC(C)c1cc(C(=O)N/N=C/c2ccoc2)cs1,x,-4,x,x,x,5787,-27
CCOc1ccc2[nH]c(=O)c(CN(Cc3nnnn3Cc3ccco3)C3CCCCC3)cc2c1,1.8,-6,-5,x,x,4346,-21
Cc1ccc2c(c1)N(CC(=O)N1CCN(c3ccccc3)CC1)C(=O)C(C)O2 (stereo not given),x,-3,x,x,x,3404,-26
CCOC(=O)COc1ccc(S(=O)(=O)N2CCN(C(=O)OCC)CC2)cc1,1.8,-3,5,11,-1,5447,-26
c1ccc(CCn2nnnc2CN2CCCc3ccccc32)cc1,-1.7,0,5,-5,4,5218,-4
COc1cccc(OC(C)c2ccnc3nc(/N=C/N(C)C)nn23)c1 (stereo not given),x,-7,x,x,x,11473,-4
CCCCC(=O)NC(=S)NNS(=O)(=O)c1ccccc1,2.5,-14,14,4,-1,2467,-18
CCOC(=O)c1ccc(Nc2cc(C)nc(N3CCOCC3)n2)cc1,-6.6,3,12,x,x,3515,-32
O=C(CCN1C(=O)/C(=C/c2ccc(F)cc2)SC1=S)NC1C=CS(=O)(=O)C1 (stereo not given),2.9,-1,-1,3,3,5690,15
CC(C)CN(CCOc1cccc(N2C(=O)C3=C(CCCC3)C2=O)c1)CC(C)C,4.0,8,16,-6,-9,2151,-2
O=C(COC(=O)CCNS(=O)(=O)c1ccc2c(c1)OCCO2)NC1CCCc2ccccc21 (stereo not given),-1.0,-4,-3,14,2,8138,-19
COc1ccc(/C=N/Nc2nc(C)cc(-c3ccccc3)n2)cc1OC,x,4,x,x,x,3161,8
CC(=O)N1CCSc2ccc(S(=O)(=O)NCCc3cccc(C)c3)cc21,2.8,1,1,-6,-18,5750,1
O=S(=O)(Cc1cc(Cl)nc(-c2cccnc2)n1)c1ccccc1,-0.5,-4,-6,2,7,4888,0
COc1ccc(-c2nn(C)c(=O)c3ccccc23)cc1NC(=O)Cn1nc(C)c2ccccc2c1=O,4.5,-14,2,-9,-7,7982,15
O=C1CCc2cc(S(=O)(=O)Nc3cccc(F)c3)cc3c2N1CC3,2.3,9,-2,3,6,u,-4
O=[N+]([O-])c1cccc(-c2ccc(/C=N/NC(=S)Nc3ccccc3)o2)c1,x,0,x,x,x,u,5
CC(=O)c1cccc(NC(=O)c2ccc(C)c(S(=O)(=O)N3CCOCC3)c2)c1,0.0,-3,12,7,7,3746,-28
COc1cc(C(=O)OCC(=O)NCC2CCCCC2)ccc1OCC(C)C,-0.1,1,4,5,7,6013,-19
O=C(COC(=O)c1ccccn1)Nc1cccc(Cl)c1Cl,3.9,-19,7,7,2,7214,12
Cc1cccn2c(=O)nc(SCC(=O)NC3CCCCC3)nc12,3.3,2,2,-4,-1,u,-77
COCCCNC(=O)c1nc2ccccc2c(=O)n1NC(=O)Nc1c(Cl)cccc1Cl,1.1,-4,4,-1,-3,3107,-19
c1ccc2oc(N3CCNCC3)nc2c1,-1.4,3,2,x,x,4093,-27

# Gathered by group: the entries above containing sulfur.
SMILES,RN4220 kill,BJeLR lethal,ugtP null kill,Mtb hypoxia rep,Mtb hypoxia rep growth,Autofluor counter,PrP 5UTR inh
O=C(CSc1nccn1-c1ccc(Cl)cc1)N1CCCc2ccccc21,9.1,-9,-5,6,6,2306,-14
COc1cccc(CN(C)CC(=O)Nc2cc(S(=O)(=O)N3CCCC3)ccc2Cl)c1OC,0.8,x,5,-5,1,6574,-16
CCOc1cc(S(=O)(=O)NCc2cccs2)ccc1Cl,2.5,-2,-8,x,x,4774,-3
CC(C)c1cc(C(=O)N/N=C/c2ccoc2)cs1,x,-4,x,x,x,5787,-27
CCOC(=O)COc1ccc(S(=O)(=O)N2CCN(C(=O)OCC)CC2)cc1,1.8,-3,5,11,-1,5447,-26
CCCCC(=O)NC(=S)NNS(=O)(=O)c1ccccc1,2.5,-14,14,4,-1,2467,-18
O=C(CCN1C(=O)/C(=C/c2ccc(F)cc2)SC1=S)NC1C=CS(=O)(=O)C1 (stereo not given),2.9,-1,-1,3,3,5690,15
O=C(COC(=O)CCNS(=O)(=O)c1ccc2c(c1)OCCO2)NC1CCCc2ccccc21 (stereo not given),-1.0,-4,-3,14,2,8138,-19
CC(=O)N1CCSc2ccc(S(=O)(=O)NCCc3cccc(C)c3)cc21,2.8,1,1,-6,-18,5750,1
O=S(=O)(Cc1cc(Cl)nc(-c2cccnc2)n1)c1ccccc1,-0.5,-4,-6,2,7,4888,0
O=C1CCc2cc(S(=O)(=O)Nc3cccc(F)c3)cc3c2N1CC3,2.3,9,-2,3,6,u,-4
O=[N+]([O-])c1cccc(-c2ccc(/C=N/NC(=S)Nc3ccccc3)o2)c1,x,0,x,x,x,u,5
CC(=O)c1cccc(NC(=O)c2ccc(C)c(S(=O)(=O)N3CCOCC3)c2)c1,0.0,-3,12,7,7,3746,-28
Cc1cccn2c(=O)nc(SCC(=O)NC3CCCCC3)nc12,3.3,2,2,-4,-1,u,-77

# Entries of single compounds, quoted from the list. Order of values: RN4220 kill, BJeLR lethal, ugtP null kill, Mtb hypoxia rep, Mtb hypoxia rep growth, Autofluor counter, PrP 5UTR inh
# Entry for COCCCNC(=O)c1nc2ccccc2c(=O)n1NC(=O)Nc1c(Cl)cccc1Cl = 1.1, -4, 4, -1, -3, 3107, -19
# Entry for c1ccc2oc(N3CCNCC3)nc2c1 = -1.4, 3, 2, x, x, 4093, -27
# Entry for Cc1cccn2c(=O)nc(SCC(=O)NC3CCCCC3)nc12 = 3.3, 2, 2, -4, -1, u, -77

# Assay outcomes as filed in PubChem.
